# Screens (PubChem)
# E coli growth: blocks Escherichia coli growth; OD600, 23 h; stronger effect = lower value; OD600 absorbance (test concentration not listed); 0.21% of 330,000 active; AID 1053175;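 active = OD600 absorbance below the run mean of sample wells minus 3.6 SD, in any replicate, cut at about 0.56 in these data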;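 also: stock transfer was 300 nL into about 60 µL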
# FGF22 binding: shifts melting point of recombinant human FGF22; Q9HCT0; recombinant FGF22 thermal shift, SYPRO orange fluorescence; percent of sucrose octasulfate shift, DMSO zero; calls only at 9.99 µM; 1.5% of 340,000 active; AID 651658;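 active = melting point raised past a set limit in the mean and every replicate; inconclusive = no clear call; three in four hits are not shown here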
# Target sequence (Q9HCT0 whole entry, looked up): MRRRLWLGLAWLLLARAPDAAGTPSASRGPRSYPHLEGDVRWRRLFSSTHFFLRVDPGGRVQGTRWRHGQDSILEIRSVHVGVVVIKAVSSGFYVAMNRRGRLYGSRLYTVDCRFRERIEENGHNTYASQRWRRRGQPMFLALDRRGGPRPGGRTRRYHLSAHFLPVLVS
# MLL AF4-AF9 inh: MLL-AF4/AF9 protein interaction inhibition; P42568; AlphaScreen, biotin-AF4 peptide binding to FLAG-AF9; inhibition, % at 10 µM; 0.47% of 350,000 active;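 active = every replicate reaching a set inhibition limit, whatever the replicate mean, cut at about 25% in these data; inconclusive = mean inhibition reaches that limit but some replicates miss it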;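 also: 0% = plate neutral control median and 100% = total signal loss; the record names both 10 and 1 µM as test concentration; the first replicate is given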
# Vif TR-FRET: inhibitors of Vif binding to APOBEC3G peptide, primary screen, biochemical, TR-FRET, GST-Vif 1-94, biotin-A3G peptide, dose response retest (AID 1117319); 0.57% of 260,000 active; inhibition, %; hits with a dose series show IC50 in µM; TR-FRET GST-Vif / biotin-A3G peptide binding; higher % means a stronger effect; test concentration not given here; strong numbers were not always called active;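 active = above the screen mean plus three standard deviations and confirmed in dose response; inconclusive = results disagree or hit not tested in dose response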;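 also: Vif residues 1-94 fused to GST binding biotinylated APOBEC3G peptide 110-148; 0% = full assay without inhibitor and 100% = GST in place of GST-Vif; retest series ran down from 100 µM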
# RanGTP-Imp inh: inhibitors of RanGTP-importin-beta interaction, primary screen, biochemical, FRET, CFP-Ran, YFP-importin-beta, homogeneous; AID 2216; inhibition, % (concentration not given with the values); cell-free CFP-Ran/YFP-importin-beta FRET ratio; 1.1% of 300,000 active;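 active = most replicates above 15%; inconclusive = exactly half above 15%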;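 also: 0% = DMSO wells and 100% = Ran loaded with GDP instead of GTP; wells of about 40 µL received 100 nL stock; the first replicate is given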
# HNF4A DNA FP: change in binding of human HNF4 alpha to DNA | P41235 | HNF4a-FITC DNA binding, fluorescence polarization, 1 h | activity change, % at 10 µM | 0.3% of 360,000 active; in the data active = activity change above about 30%, passing the limit was not always enough;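 also: controls were the assay level and a saturating level of protein; the project sought stronger binding though the title names inhibitors; some compounds called inactive have numbers as strong as hits; positive values seem to mean higher polarization but the record does not say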
# Target sequence (P41235 whole entry, looked up): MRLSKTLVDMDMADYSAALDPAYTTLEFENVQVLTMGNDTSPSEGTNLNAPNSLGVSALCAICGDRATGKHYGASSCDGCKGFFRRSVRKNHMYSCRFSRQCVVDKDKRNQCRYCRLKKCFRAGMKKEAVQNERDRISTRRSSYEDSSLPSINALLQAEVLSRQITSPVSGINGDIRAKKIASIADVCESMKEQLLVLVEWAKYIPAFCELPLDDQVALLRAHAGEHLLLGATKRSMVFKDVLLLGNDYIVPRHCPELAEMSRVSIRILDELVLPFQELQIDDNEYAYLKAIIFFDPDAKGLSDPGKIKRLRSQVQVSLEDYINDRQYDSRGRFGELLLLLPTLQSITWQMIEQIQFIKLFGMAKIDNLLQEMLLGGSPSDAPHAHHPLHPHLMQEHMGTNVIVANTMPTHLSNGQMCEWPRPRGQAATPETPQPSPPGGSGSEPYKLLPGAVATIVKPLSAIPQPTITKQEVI
# UCH37 inh: human UCH37 deubiquitinating enzyme inhibition. Q9Y5K5. purified proteasome/UCH37, Ub-AMC cleavage fluorescence. inhibition, % (test concentration not listed). 0.33% of 330,000 active. AID 588478;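 active = mean of two replicates above 20%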;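 also: 0% = compound-free wells with enzyme and 100% = wells lacking proteasome; stock transfer was 100 nL into about 20 µL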
# Target sequence (Q9Y5K5 whole entry, looked up): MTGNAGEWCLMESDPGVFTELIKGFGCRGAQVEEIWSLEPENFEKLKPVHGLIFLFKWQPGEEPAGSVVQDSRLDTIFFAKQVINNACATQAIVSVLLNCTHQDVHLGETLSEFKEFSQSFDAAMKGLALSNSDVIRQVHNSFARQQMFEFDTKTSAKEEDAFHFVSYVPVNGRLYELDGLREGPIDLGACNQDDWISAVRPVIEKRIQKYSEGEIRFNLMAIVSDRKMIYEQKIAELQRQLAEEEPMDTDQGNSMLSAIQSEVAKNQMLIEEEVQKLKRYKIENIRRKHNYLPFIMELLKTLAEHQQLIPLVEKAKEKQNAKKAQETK
#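 System: Proteasome-associated human UCH37 deubiquitinase; Input: 0.15 nM proteasome in added enzyme buffer; Also added: Ub-AMC substrate from 1 µM stock; Incubation: 30 min compound-proteasome preincubation then 25 min substrate reaction, room temperature; Detection: fluorescence, ex 355 nm, em 460 nm; Read-out: % inhibition of Ub-AMC cleavage fluorescence; Benchmarks: no-proteasome and no-compound wells.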
# * marks the source's active call; other numbers are inactive results; i = inactive; ? = inconclusive; nt = not tested or not shown.
smiles	E coli growth	UCH37 inh	RanGTP-Imp inh	FGF22 binding	HNF4A DNA FP	Vif TR-FRET	MLL AF4-AF9 inh
O=C(Nc1nc2cc3c(cc2s1)OCCO3)c1cccc(N2C(=O)CCC2=O)c1	0.771	-40.7	-1.7	i	-1.4	-10.6%	1.6
CCC(C(=O)NCCCN1CC(C)CC(C)C1)n1ncn2c(cc3occc32)c1=O (stereo not given)	0.703	4.3	-1.0	i	-1.8	nt	-0.4
COCc1cc(C)nc(OCC(=O)N/N=C/c2ccc(OC)c(OC)c2)c1C#N	nt	nt	-4.1	i	-0.1	nt	0.2
COc1ccccc1N1C(=O)c2ccccc2NC1c1ccncc1 (stereo not given)	0.788	-66.8	3.3	nt	-1.2	24.1%	nt
O=C(C[C@@H]1C/C=C\CCCC(=O)OC[C@@H]2CCCN2C1=O)NCCO	nt	-5.4	nt	i	-3.1	nt	0.2
CCN(CC)CCN(C(=O)C1=COCCO1)c1nc2c(OC)ccc(OC)c2s1	0.679	8.2	3.0	i	2.4	-6.4%	5.1
COc1ccc(CN2C(=O)C(O)(CC(=O)c3ccc4c(c3)OCO4)c3ccccc32)cc1OC (stereo not given)	0.67	1.2	-2.9	nt	4.6	-2.8%	nt
Cc1ccc(C(=O)Nc2ccc(Cc3ccncc3)cc2)cc1[N+](=O)[O-]	0.662	nt	4.9	nt	1.9	-1.4%	nt
COc1ccc(C(NC(=O)CNC(C)=O)C(=O)Nc2ccc(C(C)C)cc2)cc1 (stereo not given)	0.677	1.8	3.9	nt	-4.3	-4.0%	nt
CCN(CC)CCn1c(=N)n(CC(=O)c2ccc(Br)s2)c2ccccc21	nt	nt	6.4	i	2.3	-1.1%	10.6
O=C(CS(=O)(=O)Cc1ccccc1)Nc1ncccn1	0.726	-1.4	0.7	nt	2.2	-6.1%	nt
COCCNCCCCOc1ccccc1-c1ccccc1	0.653	4.2	4.6	nt	0.3	-2.8%	nt

smiles	E coli growth	UCH37 inh	RanGTP-Imp inh	FGF22 binding	HNF4A DNA FP	Vif TR-FRET	MLL AF4-AF9 inh
CCOC(=O)CSc1nnc(CNC(=O)c2ccc(S(=O)(=O)N3CCCC3)cc2)n1C	0.64	1.3	3.8	nt	3.8	3.5%	nt
COc1ccccc1CNC1CCCc2ccccc21 (stereo not given)	0.692	3.8	-3.2	i	-4.0	nt	2.9
CCOc1ccc(CNC(=O)c2ccc3nc(N4CCOCC4)sc3c2)cc1	0.726	4.4	0.7	i	4.0	nt	-1.9
Cn1c(N)c(C(=O)COC(=O)Cc2ccsc2)c(=O)n(C)c1=O	0.704	0.8	-2.9	nt	3.5	0.9%	nt
CCN(C(=O)COC(=O)/C(=C/c1ccccc1)NC(C)=O)c1c(N)n(Cc2ccccc2)c(=O)[nH]c1=O	0.652	0.9	nt	i	1.2	nt	-1.3
COc1ccc(-c2c(-c3ccsc3)oc3c2C(O)CCC3)cn1 (stereo not given)	nt	nt	nt	i	5.0	nt	4.1
O=C(Oc1ccc2ccccc2c1)c1ccccc1	0.703	3.9	2.1	nt	-0.4	-2.1%	nt
CCC(=O)Nc1nc(C)c(-c2csc(Nc3cccc(C(=O)O)c3)n2)s1	0.711	-1.0	4.5	i	-1.9	-11.0%	-1.2
CCc1cc2c(-c3ccccc3)cc(=O)oc2cc1OC(C)C(C)=O (stereo not given)	0.603	-1.3	-4.8	i	0.5	-1.0%	-4.1
COc1ccc(NC(=O)CSCC(=O)Nc2ccccc2C(=O)N2CCCCC2)cc1	0.689	-1.2	nt	i	-3.5	-5.3%	-7.0
C[C@]12c3[nH]c4ccc(Cl)cc4c3CCN1C(=O)[C@@H](CC(=O)NCCN1CCOCC1)C[C@@H]2C(=O)N1CCOCC1	0.696	-2.1	nt	i	-0.2	nt	0.8
COC(=O)CC1C(=O)NCCN1C(=O)CSc1nc2ccc([N+](=O)[O-])cc2s1 (stereo not given)	0.704	9.6	2.0	i	-3.2	?	-0.7

smiles	E coli growth	UCH37 inh	RanGTP-Imp inh	FGF22 binding	HNF4A DNA FP	Vif TR-FRET	MLL AF4-AF9 inh
CC1(C)[C@@H](O)CC[C@]2(C)C3C(O)C=C4[C@H]5C[C@@](C)(CO)CC[C@]5(C)CC[C@]4(C)[C@]3(C)CC[C@@H]12 (stereo not given in full)	nt	1.9	1.5	i	-0.5	nt	-2.0
CC1CN(C(=O)COC(=O)c2cc3ccccc3cc2O)CC(C)O1 (stereo not given)	0.7	1.3	nt	i	-0.6	nt	-8.7
CCn1c(=O)c2c(nc(SCC(=O)N3CCC(C)CC3)n2C)n(C)c1=O	0.619	2.6	3.7	i	1.2	0.1%	-3.9
Cc1cc([N+](=O)[O-])c2c(c1C)C1C=CCC1C(c1ccccn1)N2 (stereo not given)	0.74	5.2	?	nt	nt	nt	nt
C=Cn1c(C(=O)O)cc(CC)c1-c1ccccc1	0.658	-2.5	2.0	nt	0.6	8.2%	nt
CCCCCC(=O)N1C[C@H](O)[C@@H](n2cc(C3CC3)nn2)C[C@@H]1c1ccc(Cl)cc1	nt	nt	nt	i	-4.3	nt	-3.8
COc1ccc(CC(=O)NCC2COc3ccccc3O2)cc1 (stereo not given)	0.707	1.9	1.2	i	-1.0	nt	-0.4
CCOC(=O)N1CCN(C(=O)CN(c2ccc(OCC)cc2)S(C)(=O)=O)CC1	0.681	5.3	-0.7	nt	7.6	-4.4%	nt
CCn1c(SCC(=O)N2CCN(c3ccccc3)CC2)nnc1-c1c[nH]c2ccccc12	0.75	0.7	2.2	i	-2.8	-2.4%	0.5
CC(c1nnc(SCC(=O)Nc2cccnc2Cl)n1Cc1ccccc1)N(C)C (stereo not given)	0.684	2.0	3.3	i	-5.2	8.0%	2.4
CCn1ccnc1CNC(=O)CC1C(=O)NCCN1CC(c1ccccc1)c1ccccc1 (stereo not given)	0.661	-4.7	-0.2	i	7.3	nt	1.9
CCOC(=O)c1c(NC(=O)CSc2n[nH]c(CNc3ccccc3)n2)sc(C)c1C	0.677	2.9	2.6	nt	-1.4	7.9%	nt

smiles	E coli growth	UCH37 inh	RanGTP-Imp inh	FGF22 binding	HNF4A DNA FP	Vif TR-FRET	MLL AF4-AF9 inh
Cc1ccc(N2C(=O)CC(N3CCN(c4ccccn4)CC3)C2=O)cc1 (stereo not given)	0.693	2.4	-4.9	i	3.7	10.6%	-1.4
CCc1c(C)nc(SCC(=O)Nc2ccc3c(c2)OCCO3)[nH]c1=O	0.725	4.9	0.6	i	2.0	0.6%	-3.9
CC(Sc1nnc(C2CC2)n1C)C(=O)Nc1ccc2c(c1)CCC2 (stereo not given)	0.664	2.9	nt	i	0.0	-0.8%	-0.1
COCc1c(C#N)c(NCc2cc(OC)c(OC)c(OC)c2)nc(C)c1[N+](=O)[O-]	0.704	3.5	0.0	i	2.6	23.6%	1.4
Cc1cc(NC(=O)CO/N=C/c2ccc3c(c2)OCO3)ccc1Br	nt	nt	-1.1	i	-4.5	-5.0%	-1.7
Cn1cnnc1SCCNS(=O)(=O)c1ccccc1	0.731	0.7	1.5	nt	-4.4	2.7%	nt
CC(CO)(CO)NCc1ccc(-c2ccccc2)cc1	0.685	0.9	3.9	nt	0.2	18.1%	nt
O=C1CC2C(=O)NCCN2C(=NC(=O)c2ccccc2)N1 (stereo not given)	0.701	1.7	-3.2	i	-5.2	5.3%	-0.5
CC(NC(=O)Cn1nc(-c2ccccc2)ccc1=O)c1ccccc1 (stereo not given)	0.688	1.5	-2.1	i	-2.6	26.9%	-2.3
O=C(NCc1cccnc1)c1ccccc1CCc1ccccc1	0.681	7.3	-1.6	i	-0.8	nt	5.1
CC(C)C[C@@H]1NC(=O)[C@H](Cc2ccc(O)cc2)NC(=O)c2cc([N+](=O)[O-])cc(I)c2NCCC[C@@H](C(N)=O)NC1=O	nt	3.9	nt	nt	4.2	1.0%	nt
c1ccc(COc2ccc(-c3cc4nc(NCCOc5ccccc5)ccn4n3)cc2)cc1	nt	nt	nt	i	7.0	nt	-4.7

smiles	E coli growth	UCH37 inh	RanGTP-Imp inh	FGF22 binding	HNF4A DNA FP	Vif TR-FRET	MLL AF4-AF9 inh
CCC1([N+](=O)[O-])COC(c2ccc(C(C)C)cc2)OC1 (stereo not given)	0.646	-2.5	nt	i	1.4	1.5%	-3.4
Cc1cc(NC(=O)COc2ccc3oc4ccccc4c3c2)no1	0.73	4.2	10.7	nt	-0.5	9.2%	nt
COc1ccc(S(=O)(=O)N(C)C)cc1NCC(=O)Nc1cccc(C#N)c1	0.662	3.0	1.5	i	-3.5	6.1%	0.2
Cc1cccc(N2CCN(c3nc4ccc(Cl)cc4n4cnnc34)CC2)c1C	0.749	-12.6	2.3	i	7.5	nt	1.8
CCN(CCCNC(=O)C1c2ccccc2C(=O)N(CCOC)C1c1ccc(F)cc1)Cc1ccccc1 (stereo not given)	0.704	1.8	3.2	i	-1.6	13.4%	-6.6
CCC1=C(OC(=O)N(CC)CC)N2C(=O)OC(=NCCc3c[nH]c4ccccc34)[C@]2(Cc2ccccc2)[C@H]2C1=CC[C@H]1C(=O)NC(=O)[C@H]12	nt	4.2	2.4	i	-0.9	nt	8.3
COc1ccc(NC(=O)C2CCN(C(=O)c3cccs3)CC2)cc1OC	0.684	6.6	2.3	nt	2.6	-3.2%	nt
CCOc1cc(C(=O)N2CCN(c3ccc(C(C)=O)cc3)CC2)cc(OCC)c1OCC	0.652	3.3	0.8	i	-0.4	2.3%	2.8
Cc1noc(C)c1S(=O)(=O)Nc1ccc(C(=O)O)cc1	0.762	2.5	4.1	nt	-0.1	6.9%	nt
CSc1ccc(CCNC(=O)c2nn(C)c3c2CS(=O)(=O)c2ccccc2-3)cc1	0.697	3.1	8.5	i	-10.6	nt	1.7
Cc1cc(=O)oc2c(C)c(OCC(=O)N3CC[C@@]4(O)CCCC[C@H]4C3)ccc12	0.704	-26.4	5.6	i	2.9	nt	-11.1
Cc1c(Br)cccc1NC(=O)C1(C)CCN1CCc1ccccc1 (stereo not given)	nt	nt	nt	i	-1.4	nt	-3.8

smiles	E coli growth	UCH37 inh	RanGTP-Imp inh	FGF22 binding	HNF4A DNA FP	Vif TR-FRET	MLL AF4-AF9 inh
CN(C(=O)CCc1nnc(CCCCc2ccccc2)o1)C1CC(C)(C)NC(C)(C)C1	0.629	2.9	-10.0	i	-2.2	9.8%	0.9
O=C1c2ccccc2[C@@H]2C[C@H](NC34CC5CC(CC(C5)C3)C4)[C@@H](O)CCN12	0.719	1.5	nt	i	1.4	1.2%	4.1
Cc1cc(CSc2ccc(Cl)cc2)ccc1N	0.649	1.5	nt	i	-2.9	-11.8%	-2.0
COc1cc(C(c2c(C)[nH][nH]c2=O)c2c(C)[nH][nH]c2=O)cc(Br)c1OC	0.693	7.2	4.8	i	-0.1	-2.3%	2.6
O=C1c2ccccc2NC(c2ccc(O)cc2)N1Cc1ccco1 (stereo not given)	0.655	-319.7	0.4	nt	5.3	7.6%	nt
CCn1ncc(Br)c1C(=O)NC(C)c1ccccc1 (stereo not given)	0.682	0.2	-1.4	nt	0.5	6.4%	nt
O=C(O)c1cc([N+](=O)[O-])c(Nc2cccc3ccccc23)c([N+](=O)[O-])c1	0.681	14.1	0.1	i	-3.3	-2.0%	2.3
Cc1noc(C)c1NC(=O)Nc1cccc2c1O[C@H](CN(C)C(=O)Nc1ccc3c(c1)OCO3)[C@@H](C)CN([C@H](C)CO)C2=O	0.714	13.2	nt	i	1.1	2.6%	1.1
O=C(CCCC(=O)c1ccccc1)NCc1ccccc1	0.615	5.1	7.4	i	2.7	-6.8%	-2.4
Cc1ccc(C(=O)Nc2cccc(C(=O)NC3CCCC3)c2)cc1	0.625	3.8	0.1	i	0.8	-7.7%	-0.6

# This is a subset. The share of hits here may be higher or lower than overall.
